High-throughput results as filed in PubChem BioAssay.
UCH37 DUB inh = inhibitors of human UCH37 deubiquitinase, primary screen, biochemical, Ub-AMC cleavage, fluorescence; purified proteasome/UCH37; inhibition, % (no concentration beside the values); Ubiquitin carboxyl-terminal hydrolase isozyme L5 (Homo sapiens), Q9Y5K5; AID 588478, 2011; 330,000 compounds, 0.33% hits;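 active = mean of two replicates above 20%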;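 also: 0% = compound-free wells with enzyme and 100% = wells lacking proteasome; stock transfer was 100 nL into about 20 µL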
Target sequence (Q9Y5K5 whole entry, looked up): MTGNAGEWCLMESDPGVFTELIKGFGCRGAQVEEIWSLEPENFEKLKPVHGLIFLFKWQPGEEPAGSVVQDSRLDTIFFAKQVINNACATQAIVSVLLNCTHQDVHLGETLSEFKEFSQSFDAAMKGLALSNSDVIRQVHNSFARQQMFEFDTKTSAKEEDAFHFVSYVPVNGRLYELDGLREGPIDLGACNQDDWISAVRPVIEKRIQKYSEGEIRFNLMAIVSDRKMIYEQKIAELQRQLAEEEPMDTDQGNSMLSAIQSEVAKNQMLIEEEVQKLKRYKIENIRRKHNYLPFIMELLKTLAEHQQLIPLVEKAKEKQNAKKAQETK
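Signal – fluorescence, ex 355 nm, em 460 nm · System – Proteasome-bound UCH37 · Input – 0.15 nM proteasome as dispensed · Timing – 30 min preincubation with enzyme, 25 min cleavage at room temperature · Read-out basis – percent inhibition of cleavage signal versus uninhibited and no-proteasome wells · Medium – Tris-HCl pH 7.4 with ATP-MgCl2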
Ecoli rRNA inh = reduced GFP signal of wild-type E. coli, primary screen, bacterial rRNA inhibitor project, GFP/RFP fluorescence, OD600, single point | GFP signal change (wild-type ribosome), % (concentration not given with the values) | 350,000 compounds, 1.6% hits | E. coli WT GFP vs humanized-ribosome RFP mutants, 24 h; active compounds read low; DMSO median 0, no signal -100;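 active = significant combined selectivity score with lowered wild-type GFP, culture density cut under 30%, mutant RFP and density less affected; inactive = any of these conditions unmet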; also: one replicate is shown; some compounds called inactive have numbers as strong as hits
Beta cell apopt = inhibitors of cytokine-induced beta cell apoptosis, primary screen, luminescence; INS-1E cytokine-induced death, ATP luminescence, 48 h; percent of positive-control rescue, neutral wells zero; protection from apoptosis, % (no concentration beside the values); 300,000 compounds, 0.8% hits; AID 435005, 2010;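 active = all replicates at 75% or more, or half of them and the mean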;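 also: 0% = cytokine-treated negative control wells and 100% = positive control rescue; higher means more ATP so stronger rescue from cytokine killing; wells of about 40 µL received 100 nL stock; the first replicate is given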
Bfl-1 A1 inh = caspase 3/7 activation in MEF A1-2A-BIM cells, primary screen, A1 inhibitor project, cell-based, luminescence, HTS; caspase activation, % (no concentration beside the values); AID 2462, 2010; 330,000 compounds, 0.066% hits; Caspase-Glo 3/7 luminescence, 3 h; percent of clofoctol response, vehicle zero;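 active = over half of replicate activation scores above 10%, or exactly half above 10 with the replicate mean above 10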;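 also: wells of about 30 µL received 50 nL stock; many hits fall short of the cut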
AF4-AF9 inh = inhibitors of AF4 peptide binding to AF9, primary screen, biochemical, AlphaScreen, biotin-AF4 peptide, FLAG-AF9, single point. Protein AF-9 (Homo sapiens), P42568. inhibition, % at 10 µM. 350,000 compounds, 0.47% hits;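 active = every replicate reaching a set inhibition limit, whatever the replicate mean, cut at about 25% in these data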;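 also: 0% = plate neutral control median and 100% = total signal loss; the record names both 10 and 1 µM as test concentration; the first replicate is given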
Target sequence (P42568 whole entry, looked up): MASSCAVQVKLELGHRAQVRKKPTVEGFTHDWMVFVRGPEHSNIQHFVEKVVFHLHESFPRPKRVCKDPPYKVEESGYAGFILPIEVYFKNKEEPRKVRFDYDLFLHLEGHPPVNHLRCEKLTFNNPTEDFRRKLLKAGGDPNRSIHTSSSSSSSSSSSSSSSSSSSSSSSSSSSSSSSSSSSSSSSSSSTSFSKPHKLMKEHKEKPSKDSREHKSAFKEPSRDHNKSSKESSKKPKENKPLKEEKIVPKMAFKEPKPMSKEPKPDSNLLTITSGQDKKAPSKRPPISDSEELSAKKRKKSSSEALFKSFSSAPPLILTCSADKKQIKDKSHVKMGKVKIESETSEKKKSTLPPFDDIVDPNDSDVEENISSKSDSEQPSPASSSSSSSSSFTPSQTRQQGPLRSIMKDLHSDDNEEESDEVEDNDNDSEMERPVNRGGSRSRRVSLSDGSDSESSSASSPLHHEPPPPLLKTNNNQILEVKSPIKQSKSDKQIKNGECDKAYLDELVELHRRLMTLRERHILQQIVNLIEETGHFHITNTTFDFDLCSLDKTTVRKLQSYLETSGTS
Ecoli growth = E. coli growth inhibition, primary screen, OD600; Escherichia coli growth, 23 h; active compounds read low; 330,000 compounds, 0.21% hits; OD600 absorbance (test concentration not listed);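 active = OD600 absorbance below the run mean of sample wells minus 3.6 SD, in any replicate, cut at about 0.56 in these data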;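 also: stock transfer was 300 nL into about 60 µL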
T cruzi inh = inhibitors of intracellular T. cruzi growth, primary screen, luminescence, NIH3T3 host cells; 300,000 compounds, 1.4% hits; inhibition, % (test concentration not listed); AID 1885, 2009; T. cruzi beta-gal in NIH3T3, 90 h;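 active = mean inhibition across valid replicates above about 55%, limit read from the data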;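 also: signal also drops with host cell toxicity which is not excluded here; 0% = plate median of DMSO wells and 100% = zero luminescence signal; higher percent means less beta-gal luminescence so fewer parasites; stock transfer was 50 nL into about 50 µL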
FGF22 binding = binders of human FGF22 protein, primary screen, FGF22 synaptogenesis inhibitor project, biophysical, thermal shift, single point. AID 651658, 2012. calls only at 9.99 µM. recombinant FGF22 thermal shift, SYPRO orange fluorescence; percent of sucrose octasulfate shift, DMSO zero. Fibroblast growth factor 22 (Homo sapiens), Q9HCT0. 340,000 compounds, 1.5% hits;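 active = melting point raised past a set limit in the mean and every replicate; three in four hits are not shown here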
Target sequence (Q9HCT0 whole entry, looked up): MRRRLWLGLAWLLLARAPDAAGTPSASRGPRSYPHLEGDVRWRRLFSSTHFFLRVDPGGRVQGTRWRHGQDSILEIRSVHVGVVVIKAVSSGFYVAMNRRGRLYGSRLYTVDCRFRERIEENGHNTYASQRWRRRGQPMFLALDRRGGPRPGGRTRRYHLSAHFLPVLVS
Ecoli rRNA inh OD600 = second read-out of Ecoli rRNA inh, no call of its own (marks repeat the call); OD600 change, %; measured here: OD600 growth;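 optical density of the mix in the first replicate; 0 = DMSO median and -100 = no signal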
Ecoli rRNA inh RFP = also measured in Ecoli rRNA inh; calls as there; RFP signal change, %; measured here: RFP humanized mutant strains;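 first replicate; 0 = DMSO median and -100 = no signal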
Active calls of the source: *; i = inactive; x = no result given.

SMILES	UCH37 DUB inh	Ecoli rRNA inh	Ecoli rRNA inh OD600	Ecoli rRNA inh RFP	Beta cell apopt	Bfl-1 A1 inh	AF4-AF9 inh	Ecoli growth	T cruzi inh	FGF22 binding
Cc1ccc2nc3c(cc(C(=O)NCC4CCCO4)c(=N)n3CC3CCCO3)c(=O)n2c1 (stereo not given)	i	x	x	x	-16	0.6	x	0.69	5	x
Cc1ccc(CNC(=O)CSCC(=O)O)cc1	-2.5	x	x	x	-4	-0.7	x	0.71	-14	x
CC(=O)NNC1=Nc2ccccc2N(C)C(C)C1 (stereo not given)	4.1	x	x	x	3	-0.1	x	0.67	0	x
Cc1cc2occ(CC(=O)Nc3nnc(C4CC4)s3)c2cc1C	2.3	x	x	x	-11	2.7	x	0.8	x	x
CCOC(=O)C1CCN(S(=O)(=O)c2ccc(Cl)s2)CC1	1.4	-2	-15	0.1	1	0.1	-2.0	0.71	-8	i
COc1cccc(OCCNc2cc(N3CCOCC3)ccc2[N+](=O)[O-])c1	9.7	x	x	x	-8	-0.7	x	0.75	23	x
COC(=O)c1ccc(COC(=O)C2CC(O)CN2S(=O)(=O)c2ccc([N+](=O)[O-])cc2)cc1 (stereo not given)	2.2	-2	11	-1.6	0	0.4	7.1	0.7	x	i
Cc1ccc(C)c(C(=O)COC(=O)c2cc(Cl)nc3ccccc23)c1	1.1	4	2	-1.8	0	-0.5	-14	0.69	-24	i
O=C1OC(N2C(=O)CC[C@H]2C(=O)NCC2CCCO2)c2ccccc21 (stereo not given in full)	-0.1	x	x	x	-2	0.4	3.0	0.77	-4	i
Nc1nc(NCc2ccco2)nn1-c1ccccc1	3.6	x	x	x	-3	-0.7	x	0.7	-16	x
NCCCCCC(=O)O	0.5	x	x	x	-7	0.1	-3.4	0.67	x	i
CN(C(=O)COC(=O)/C=C/c1ccc(Cl)c(Cl)c1)c1c(N)n(Cc2ccccc2)c(=O)[nH]c1=O	1.3	1	4	-0.1	3	-0.2	-2.3	0.69	-3	i
O=C(COC(=O)c1cc(S(=O)(=O)N2CCOCC2)ccc1Cl)NCc1ccccc1	4.0	-3	-3	2.9	-1	0.7	6.6	0.66	x	i
O=C(CNS(=O)(=O)c1ccc(Br)cc1)N1CCN(c2ccc(F)cc2)CC1	0.6	x	x	x	-4	-0.1	x	0.77	10	x
CSc1ncccc1C(=O)OCC(=O)Nc1ccc2c(c1)OCO2	6.0	14	20	1.6	-4	0.4	-1.6	0.72	-16	i
Cc1ccc(C)c(S(=O)(=O)N2CCN(C(=O)c3ccccc3Cc3ccccc3)CC2)c1	1.8	6	7	2.3	2	1.0	-2.3	0.64	19	i
C=CCn1c(-c2ccc(Cl)cc2)c[nH]c1=S	-0.2	x	x	x	x	0.1	x	0.68	-13	x
COc1cccc(CNC(=O)CCNC(=O)N2CCn3c2nc2ccccc23)c1	1.9	17	11	7.0	0	0.8	-2.5	0.67	11	i
Cc1ccc(C(=O)N2CCN(S(C)(=O)=O)C2)cc1	3.0	x	x	x	-3	1.0	x	0.7	-16	x
O=C(NCc1ccc(F)cc1)C1CCCN(c2cnccn2)C1 (stereo not given)	-6.9	4	0	-3.1	1	0.5	-3.0	0.72	1	i
COCCCn1c(-c2ccc(Cl)cc2)n[nH]c1=S	1.4	x	x	x	-8	0.2	x	0.74	5	x
CCN(c1ccc(N=Cc2c(O)n(Cc3ccc(OC)cc3)c(=O)c3ccccc23)cc1)C(C)C	6.5	41	20	11	x	x	-2.5	0.74	x	i
Cc1ccc(C2C(C#N)=C(N)Oc3cc(N)ccc32)cc1 (stereo not given)	-1.1	4	12	55	2	0.0	-3.3	0.71	2	i
CS(=O)(=O)N1CCN(C(=O)Cc2ccc(Br)cc2)CC1	3.1	9	4	-3.6	x	0.0	-1.2	0.71	-21	i
Cc1ccc(S(=O)(=O)NCc2ccccc2)cc1C(=O)N1CCN(S(=O)(=O)c2ccccc2)CC1	5.4	-2	-9	1.5	x	x	0.2	0.67	x	i
CC1=C(c2ccccc2)C=NNCC1=O	6.1	5	-1	3.6	x	x	0.4	0.67	x	i
O=C(O)CCN(CCC(=O)O)c1ccccc1	5.0	x	x	x	-4	0.6	x	0.73	-6	x
CN(Cc1ccccc1)Cc1c(O)ccc2ccccc12	-11	10	12	2.5	-7	-0.7	-0.2	0.63	-50	i
COc1ccccc1CNC(=O)[C@@H]1CCCN1S(=O)(=O)c1ccc(Cl)cc1	3.1	-8	-15	0.2	-3	0.8	-1.2	0.65	1	i
CCn1c(O)c(C=Nc2ccccc2)sc1=S	2.8	9	1	2.6	12	-0.8	4.2	0.74	7	x
Nc1c(S(=O)(=O)c2ccccc2)csc1C(=O)O	1.9	15	9	2.3	-1	0.8	-1.4	0.71	0	i
COc1ccc(CCN2C(=O)CSC2c2cccc([N+](=O)[O-])c2)cc1OC (stereo not given)	2.4	-3	-4	-1.8	-5	-0.3	-0.4	0.67	2	i
CN1CCN(c2sc(S(C)(=O)=O)nc2S(=O)(=O)c2ccc(Cl)cc2)CC1	4.2	8	8	0.0	-16	0.2	0.5	0.69	0	i
CC(C)(C)c1ncc(S(=O)(=O)c2ccc(C(F)(F)F)cn2)c(N)n1	3.0	x	x	x	9	0.0	1.0	0.72	6	i
Cn1cccc1Cc1nnc(SCC(=O)NCc2ccc3c(c2)OCO3)n1CCc1ccccc1	0.0	x	x	x	-14	-0.3	x	0.67	4	x
CCN(c1ccc(NC(=O)CN2C(=O)NC3(CCOc4ccccc43)C2=O)cc1)C(C)C (stereo not given)	0.9	x	x	x	1	0.9	x	0.72	25	x
CC(C)(C)n1cnc2cc(NC(=O)c3ccco3)ccc21	1.3	5	7	1.0	-2	-0.6	1.4	0.67	-3	i
CC1(C(=O)Nc2ccccc2)Cc2ccccc2C(=O)O1 (stereo not given)	0.9	3	5	1.8	0	0.3	-0.9	0.68	-3	i
N#Cc1ccc(-c2cccnc2)nc1SCc1ccc(Cl)cc1Cl	-24	x	x	x	11	0.2	x	0.69	49	x
CCOc1cc(C)nc(N2CCCC(C(=O)NCc3ccccc3F)C2)n1 (stereo not given)	2.9	1	-6	-3.8	-1	-0.1	-16	0.68	12	x
CCOCCCn1cc(C(=O)c2cc(Br)ccc2O)cc(C#N)c1=O	0.7	-9	-7	5.8	x	0.1	-25	0.7	-1	i
CCOC(=O)CCCCNCc1ccccc1	1.0	x	x	x	-1	1.9	x	0.65	-8	x
Clc1ccc(SCCOCCN2CCc3ccccc3C2)cc1	2.0	-59	-78	-17	-3	0.1	4.7	0.6	66*	i
Cc1ccc(C)c(NC(=O)CC2Oc3ccccc3NC2=O)c1 (stereo not given)	4.5	-1	8	-11	-3	-0.5	-2.3	0.69	3	i
COc1ccc(C(=O)Cn2c(=N)n(C)c3ccccc32)cc1	9.7	7	-3	3.0	x	0.0	0.0	0.68	16	i
O=c1oc2c(-c3cccc(F)c3)cc(O)cc2s1	4.6	-16	-15	7.9	-24	-0.2	-0.4	0.64	10	i
CCOC(=O)C(NC(C)=O)(Nc1cccc(F)c1)C(F)(F)F (stereo not given)	0.6	x	x	x	-4	-0.5	x	0.76	-3	x
Cc1ccn2cc(-c3cc4ccccc4oc3=O)nc2c1	-26	3	1	-1.5	x	x	-10	0.74	x	i

Record cards, as listed above. Order of values: UCH37 DUB inh, Ecoli rRNA inh, Ecoli rRNA inh OD600, Ecoli rRNA inh RFP, Beta cell apopt, Bfl-1 A1 inh, AF4-AF9 inh, Ecoli growth, T cruzi inh, FGF22 binding
Results for `CCOC(=O)CCCCNCc1ccccc1` = 1.0, x, x, x, -1, 1.9, x, 0.65, -8, x
Results for `Clc1ccc(SCCOCCN2CCc3ccccc3C2)cc1` = 2.0, -59, -78, -17, -3, 0.1, 4.7, 0.6, 66*, i
Results for `CCOc1cc(C)nc(N2CCCC(C(=O)NCc3ccccc3F)C2)n1` (stereo not given) = 2.9, 1, -6, -3.8, -1, -0.1, -16, 0.68, 12, x
Results for `CCOCCCn1cc(C(=O)c2cc(Br)ccc2O)cc(C#N)c1=O` = 0.7, -9, -7, 5.8, x, 0.1, -25, 0.7, -1, i
Results for `COc1ccc(C(=O)Cn2c(=N)n(C)c3ccccc32)cc1` = 9.7, 7, -3, 3.0, x, 0.0, 0.0, 0.68, 16, i

(cont.)
SMILES	UCH37 DUB inh	Ecoli rRNA inh	Ecoli rRNA inh OD600	Ecoli rRNA inh RFP	Beta cell apopt	Bfl-1 A1 inh	AF4-AF9 inh	Ecoli growth	T cruzi inh	FGF22 binding
COC(=O)c1ccc(COc2ccccc2/C=C/C(=O)c2ccc(OCC(=O)O)cc2)cc1	-1.9	-7	-22	8.8	-5	-0.8	2.0	0.7	x	i
CC1CCCCC12NC(=O)N(CC(=O)OCc1cccc(F)c1)C2=O (stereo not given)	-2.9	6	8	2.0	2	1.0	-6.2	0.67	x	i
Cn1cc(S(=O)(=O)N2CCCC2)cc1C(=O)NCc1ccc(Cl)cc1	0.9	6	-7	3.0	-17	-0.5	-21	0.72	-1	i
CC(Oc1cccc(Cl)c1)C(=O)NC1CC(C)(C)NC(C)(C)C1 (stereo not given)	2.1	15	7	-0.8	-3	0.1	1.4	0.69	-4	i
CCCc1nc2ccc(NC(=O)NCCC(=O)OCC)cc2c(=O)n1Cc1ccc(Cl)cc1	-1.8	x	x	x	-1	-0.8	x	0.67	-7	x
CSc1ccc(/C=N/N2CCN(Cc3ccc(Cl)cc3)CC2)cc1	x	-3	1	-2.0	-3	0.2	2.3	x	31	x
S=C(Nc1ccc(Cl)cc1)N1CCOCC1	2.4	0	-1	0.1	-2	0.3	x	0.66	-20	x
CCOC(=O)C1CCN(c2nc3ccccc3nc2C(C#N)C(=O)OCCOC)CC1 (stereo not given)	-3.2	x	x	x	4	1.3	x	0.73	-9	x
Cc1ccc(N2C(=O)c3cccc4c([N+](=O)[O-])ccc(c34)C2=O)c2cccnc12	-15	6	2	7.8	45	1.4	3.0	0.67	54	x
O=C(N/N=C/c1ccccn1)c1sc2ccccc2c1Cl	x	-20	-31	-6.6	17	-0.6	4.4	x	-1	x
COc1cccc(CNS(=O)(=O)/C=C/c2ccc(OC)c(OC)c2)c1	0.5	-15	-20	-0.8	-10	1.2	1.2	x	-5	i
COc1ccc(NC(=O)Cn2nnc(C(=O)NCc3ccco3)c2N)c(OC)c1	0.2	x	x	x	5	-0.4	x	0.68	1	x
COc1cc(C(=O)NCC(c2ccccc2)N(C)C)ccc1OCc1c(C)noc1C (stereo not given)	-1.1	x	x	x	2	-0.2	1.7	0.65	x	i
O=C(CCc1nc2ccccc2s1)OCC(=O)c1ccccc1	1.2	-20*	-12*	3.2*	0	-0.7	0.2	0.68	-8	i

A portion of the library. The share of hits here may be higher or lower than overall.
